# Screens from PubChem.
# FLuc inh = Firefly luciferase inhibition profiling of diverse chemical library using quantitative high-throughput screening. Luciferin 4-monooxygenase (Photinus pyralis), P08659. purified P. pyralis luciferase, luminescence, biochemical. Potency, µM (titrated, usually from 115 µM), without a hit: top-dose activity change, negative = inhibition, actives largely listed as inhibitors. actives 2.5% (n = 76,000); also: potency is read from the fitted curve at half-maximal effect; nearly all actives have a fitted effect of over 65% in size
# Target sequence (P08659 whole entry, looked up): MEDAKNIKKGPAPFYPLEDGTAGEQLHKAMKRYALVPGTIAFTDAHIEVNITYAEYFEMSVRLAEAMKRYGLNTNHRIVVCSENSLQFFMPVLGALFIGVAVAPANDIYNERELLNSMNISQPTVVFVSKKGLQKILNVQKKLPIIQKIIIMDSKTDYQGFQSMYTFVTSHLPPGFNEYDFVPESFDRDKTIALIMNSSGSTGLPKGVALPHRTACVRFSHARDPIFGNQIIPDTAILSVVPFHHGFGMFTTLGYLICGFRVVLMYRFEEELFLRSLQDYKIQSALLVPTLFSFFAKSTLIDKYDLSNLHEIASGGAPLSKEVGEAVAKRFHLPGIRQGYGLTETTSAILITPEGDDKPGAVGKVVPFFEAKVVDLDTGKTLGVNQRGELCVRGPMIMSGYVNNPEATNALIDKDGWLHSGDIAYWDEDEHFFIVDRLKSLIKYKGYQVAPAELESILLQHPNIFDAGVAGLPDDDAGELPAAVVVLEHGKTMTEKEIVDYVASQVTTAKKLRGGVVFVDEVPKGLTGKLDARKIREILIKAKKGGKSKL
#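 FLuc 10nM, D-luciferin 10uM, ATP 10uM, Mg acetate 10mM, Tris acetate pH 7.5, Tween/BSA; cpd qHTS; enzyme added last; CCD luminescence.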
# IP6K1 inhibitor = Primary qHTS assay for small molecule inhibitors of Inositol hexaphosphate kinase 1 (IP6K1); Inositol hexakisphosphate kinase 1 (Homo sapiens), Q92551; IP6K1 kinase, ADP-Glo luminescence, 2 h; hits give low values; activity change, % (series mostly up to about 58 µM); actives 0.81% (n = 140,000); in the data active = activity change below about -25%
#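 ADP-Glo luminescence measures ADP made by human IP6K1 during a 2 h RT reaction with ATP/IP6 (mix at 1.3 mM/130 uM); top library doses 57.5 and 19.1 uM final.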
# SNCA expr inh = Primary qHTS assay for inhibitors of alpha-synuclein gene (SNCA) expression; HEK-293 SNCA-luciferase knock-in, luminescence, 24 h; Potency, µM (top dose mostly 57.2 µM), for the others: top-dose activity change, negative = inhibition, hits mostly inhibitors; actives 0.17% (n = 140,000); AID 1671194, 2021;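 also: potency is read from the fitted curve at half-maximal effect; plate controls were DMSO cells for no effect and cell-free wells for full effect; nearly all actives have a fitted effect of over 45% in size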
# GPT2 inh = Primary qHTS assay for inhibitors of Glutamate pyruvate transaminase 2 (GPT2). AID 1671188, 2021. Alanine aminotransferase 2 (Homo sapiens), Q8TD30. actives 0.25% (n = 100,000). Recombinant GPT2, coupled pyruvate oxidase/HRP Amplex Red fluorescence. Potency, µM (titrated, usually from 57.7 µM), for the others: at the highest dose activity change, negative = inhibition, most hits filed as inhibitors; also: potency is read from the fitted curve at half-maximal effect; nearly all actives have a fitted effect of over 60% in size; many of its hits are not listed in these tables
#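 Recombinant GPT2 (10ng/uL) with 250uM a-KG and 2mM L-alanine, 30 min at room temperature, in HEPES pH 7.5 buffer. Pyruvate detected by pyruvate oxidase/HRP/Amplex Red fluorescence after 30 min in the dark; AOA (50uM) as positive control.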
# Starred values were filed as active, the others as inactive; i = inactive; · = not tested or not shown; & = joins results of further samples; [ ] = remark or other dose. Unless noted, calls follow the shape of the dose curve; as a rule, active = well fitted curve in the direction sought with a large enough effect; inconclusive = small, poorly fitted or top-dose-only effect, or another doubt; inactive = no such curve, though single readings can be large; an effect the other way counts as inactive or inconclusive. Unless noted, % is scaled to controls: 0 for no effect and ±100 for the full control effect. The list is partial (hit frequency here may not be typical).
Structure | FLuc inh | IP6K1 inhibitor | SNCA expr inh | GPT2 inh
COC(=O)[C@@H]1Cc2ncn(C)c2CN1C(=O)c1ccc(OC)cc1 | -5%[172 µM] | -7 | 7%[87.6 µM] | -7%[88.5 µM]
COc1ccc(CN2C[C@@H](CO)[C@H](c3ccncc3)C2)cc1 | 1% | -13 | -14% | 0%
COc1ccc(CN2C[C@H]3CN(Cc4ncc[nH]4)CCN3C2=O)cc1 | 2%[172 µM] | 6 | -9%[87.6 µM] | i
O=C(c1ccncc1)N1CCC(Oc2ccccc2)C1 (configuration not stated) | 0% | 21 | -4% | i
O=C(c1ccccc1)N1CCC(Oc2cccnc2)C1 (configuration not stated) | 4% | 21 | 29% | i
COc1cccc(CN2C[C@@H](CO)[C@H](c3ccccn3)C2)c1 | -2% | 5 | 28% | 2%
COc1ccccc1-c1cc(C(=O)N2CCN(C)CC2)nn2cnnc12 | · | -1 | 0% | i
CC1OC1P(=O)(O)O (configuration not stated) | · | · | 9% | -2%

# Later entries:
Structure | FLuc inh | IP6K1 inhibitor | SNCA expr inh | GPT2 inh
Cc1ccc2nc(CO[C@H]3CN(Cc4ncc[nH]4)C[C@H]3F)[nH]c2c1 | -16%[172 µM] | -6 | 15%[87.6 µM] | -18%[88.5 µM]
CNC(=O)c1ccccc1Sc1ccc2c(/C=C/c3ccccn3)n[nH]c2c1 | · | 19&-1 | 116%[activator][25.6 µM] | -12%&-2%
c1ccc(Nc2ncc(-c3cncnc3)c3c2OCC3)cc1 | · | 17 | 10%[87.6 µM] | -1%[88.5 µM]
O=C(Nc1ncc(-c2ccccc2)c2c1OCC2)c1ccncc1 | -22%[172 µM] | -14 | 14%[87.6 µM] | i

# A draw from above in order of length of the SMILES, rising:
Structure | FLuc inh | IP6K1 inhibitor | SNCA expr inh | GPT2 inh
CC1OC1P(=O)(O)O (configuration not stated) | · | · | 9% | -2%
O=C(c1ccccc1)N1CCC(Oc2cccnc2)C1 (configuration not stated) | 4% | 21 | 29% | i
c1ccc(Nc2ncc(-c3cncnc3)c3c2OCC3)cc1 | · | 17 | 10%[87.6 µM] | -1%[88.5 µM]
O=C(Nc1ncc(-c2ccccc2)c2c1OCC2)c1ccncc1 | -22%[172 µM] | -14 | 14%[87.6 µM] | i
COc1ccccc1-c1cc(C(=O)N2CCN(C)CC2)nn2cnnc12 | · | -1 | 0% | i
COc1ccc(CN2C[C@@H](CO)[C@H](c3ccncc3)C2)cc1 | 1% | -13 | -14% | 0%
COC(=O)[C@@H]1Cc2ncn(C)c2CN1C(=O)c1ccc(OC)cc1 | -5%[172 µM] | -7 | 7%[87.6 µM] | -7%[88.5 µM]
CNC(=O)c1ccccc1Sc1ccc2c(/C=C/c3ccccn3)n[nH]c2c1 | · | 19&-1 | 116%[activator][25.6 µM] | -12%&-2%
Cc1ccc2nc(CO[C@H]3CN(Cc4ncc[nH]4)C[C@H]3F)[nH]c2c1 | -16%[172 µM] | -6 | 15%[87.6 µM] | -18%[88.5 µM]
